Bioassay records deposited in PubChem BioAssay by several laboratories.
PrP UTR inh – suppresses PrP 5' UTR mRNA reporter expression; inhibition, % (concentration not given with the values); hit rate 0.35% among 340,000; cell-based PrP 5' UTR mRNA reporter, plate reader;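 active = every replicate at 50% or more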;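 note: 0 = median of the neutral control wells; tested in H4 reporter cells; numbers are from one replicate; inactives centre near -14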
Sa ugtP lethal – growth inhibition of S. aureus ugtP deletion strain; growth inhibition, % (concentration not given with the values); AID 1259309; S. aureus RN4220 ugtP deletion, OD600 growth, 16 h; some inactives read as strong as hits; hit rate 0.54% among 330,000;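 active = z-score under -3 and OD600 up to 0.15 on both plates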;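 note: plate controls were untreated wells for no effect and antibiotic for full effect; wells of about 80 µL received 100 nL stock; the first replicate is given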
Sa RN4220 lethal – kills Staphylococcus aureus RN4220 | S. aureus RN4220 growth, OD600, 16 h | inhibition, % (no concentration beside the values) | hit rate 0.33% among 330,000;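 active = z-score of -3 or lower and OD600 up to 0.18 on both plates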;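 note: plate controls were untreated cells for no effect and reference antibiotic for full effect; stock transfer was 100 nL into about 80 µL; one replicate is shown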
Autofluor counter – flagged as autofluorescent in microsphere protease counterscreen; compound autofluorescence counterscreen, microsphere flow cytometry; stronger effect = higher value; fluorescence intensity (concentration not given with the values); hit rate 3.1% among 360,000;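 active = at least 3 SD above the mean of all compounds, about 16000 in these data; inconclusive = too few beads counted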;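 note: 100 nL of 1 mM stock went into each well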
BJeLR lethal – kills HRASV12-expressing BJeLR cells; BJeLR (HRASV12) viability, CellTiter-Glo ATP luminescence, 48 h; reference of the scale not given here; inhibition, % (test concentration not listed); hit rate 0.17% among 300,000; AID 1554;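 active = replicate mean above 50%; inconclusive = above 50% but judged a plate artefact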;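 note: 50 nL library stock added to about 25 µL; numbers are from one replicate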
Mtb hypoxia inh – reduces hypoxia-regulated biosensor signal in M. tuberculosis. M. tuberculosis hypoxia-regulated fluorescent reporter, fluorescence. fluorescence inhibition, % (test concentration not listed). hit rate 0.1% among 300,000;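 active = 35 to 45% if threefold the growth effect, above 45% if 1.5-fold the growth effect; inactive = the rest, general growth blockers included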;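 note: wells of about 50 µL received 100 nL stock; 0% = vehicle wells and 100% = reference inhibitor wells; whole bacteria with a GFP reporter of the hypoxia response; strong numbers were not always called active; many hits fall short of the cut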
Mtb hypoxia inh growth – further read-out of Mtb hypoxia inh, marked with its call; growth inhibition, %; measured here: M. tuberculosis growth (absorbance);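 0% = vehicle and 100% = reference antibiotic; read after six days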
Starred values were filed as active, the others as inactive; ? = inconclusive; . = not tested or not shown.

SMILES	PrP UTR inh	Sa ugtP lethal	Sa RN4220 lethal	Autofluor counter	BJeLR lethal	Mtb hypoxia inh	Mtb hypoxia inh growth
Cc1ccccc1NC(=S)N(Cc1cccnc1)Cc1ccccc1Cl	-32	-3	9.1	4466	6	4	3
COc1ccc(OC)c(C2C(C(=O)c3ccc(C)o3)=C(O)C(=O)N2c2cc(C)on2)c1 (centres undefined)	-12	2	-1.4	4546	-10	-9	0
Cc1c(C)n(Cc2ccccc2)c2ncnc(NCCN(C)C)c12	-10	-1	0.8	3028	0	8	1
O=C(NCCn1cc(SCc2ccc(F)cc2)c2ccccc21)c1ccccc1F	-29	-13	-0.2	6493	3	11	10
CCc1nc2ccccc2c(C(=O)OCC(=O)C(C)(C)C)c1C	-13	-6	-5.2	4294	6	4	15
Cc1cc(C)c2[nH]c(=O)c(CN(CC3CCCO3)C(=O)C3CCCO3)cc2c1 (centres undefined)	-7	3	7.2	2694	-14	4	0
N#Cc1ccc(C(=O)N2CCN(C(=O)C3CCCO3)CC2)cc1 (centres undefined)	-6	-1	-3.1	?	.	3	8
N#CCSc1nnc(Cc2cccc3ccccc23)n1C1CCCCC1	4	-9	5.5	4559	-11	-3	0
CC(=NO)c1cccc(N2Cc3ccccc3C2)c1	.	-2	1.6	.	.	-1	1
Cc1ccsc1CN(C)CC(=O)NCC(=O)Nc1ccc(F)c(F)c1F	-23	3	4.0	3610	.	13	8
CCn1c(=NC(=O)c2cccc(N3C(=O)CCC3=O)c2)sc2c(C)ccc(OC)c21	-14	19	5.1	4250	-4	2	0
CCc1nc(CNC(=O)C2CCC(=O)N(CCc3cccc(F)c3)C2)no1 (centres undefined)	9	10	7.5	3700	5	0	0
CN(C(=O)COC(=O)CSc1ccc([N+](=O)[O-])cc1)c1ccccc1	2	11	9.2	2812	.	4	-1
COc1ccc(CCNC(=O)CN2C(=O)NC(Cc3c[nH]c4ccccc34)C2=O)cc1 (centres undefined)	-9	7	2.8	3721	10	-6	-6
Cc1nn(-c2ccccc2)c(C)c1/C=N/NC(=O)c1cc(C23CC4CC(CC(C4)C2)C3)[nH]n1	4	.	.	2084	-3	.	.
CCOc1ccc(C(C)=NNC(=O)C(OC)c2ccccc2)cc1 (centres undefined)	.	15	7.3	.	.	-2	-8
Cc1cc(C)c(C(=O)N2CCCC(CNS(=O)(=O)c3cccs3)C2)o1 (centres undefined)	-16	4	2.6	5637	-1	5	17
O=C(O)C1C2OC(C(Br)C2Br)C1C(=O)O (centres undefined)	-17	5	3.5	3787	.	24	12
Cc1ccc(C)c(OCCCCCn2ccnc2)c1	-5	4	3.9	7044	-1	10	-4
Cc1cc(C)c(NC2=NS(=O)(=O)c3ccccc32)c(C)c1	-10	-3	3.0	22474*	1	-3	3
COc1ccc(OCC(=O)N2CCN(c3nnc(-c4ccccc4)c4ccccc34)CC2)cc1	9	-1	-5.9	10701	-7	-5	6
COc1ccccc1C=Nn1c(N)c(S(=O)(=O)c2cccs2)c2nc3ccccc3nc21	.	-25	-1.4	.	.	10	18
COC(=O)Cc1ccc(NC(=O)c2ccc3c(c2)C(=O)N(CC2CCCO2)C3=O)cc1 (centres undefined)	-6	3	1.7	?	-13	6	6
COc1ccc(S(=O)(=O)N(CC(=O)N2CCN(C)CC2)C2CCCCC2)cc1OC	-10	-1	-13	2889	0	16	11
Nc1ccc(C(=O)OCCc2ccccc2)cc1	-78	5	8.5	4277	3	2	9
COc1ccccc1C(=O)NCCC(=O)Nc1ccc(S(=O)(=O)Nc2ncccn2)cc1	.	3	4.3	6691	.	16	10
CN(C(=O)c1cnc(N2CCN(c3ncccn3)CC2)c2ccccc12)c1ccc(Cl)cc1	-13	7	5.5	3018	-2	-10	16
Cn1c(N)c(C(=O)CSc2nc(N)cc(=O)[nH]2)c(=O)n(C)c1=O	2	1	-0.4	6122	1	-11	-3
NC(=O)CSc1nccn1Cc1ccc(Cl)cc1	-11	2	3.5	4600	-3	-1	5
O=C(NCC(c1ccco1)N1CCCCC1)C(c1ccccc1)c1ccccc1 (centres undefined)	-16	3	9.1	4247	9	13	8
COc1ccc(S(=O)(=O)NC(C(=O)NCCc2ccccn2)C(C)C)cc1 (centres undefined)	-22	7	11	4164	-4	-10	1
O=C(Nc1ccccc1OC(F)F)c1cccc(S(=O)(=O)N2CCCC2)c1	-31	3	3.5	5281	-3	15	6
COc1ccc(/C=C(/C(=O)c2ccc(Cl)cc2Cl)n2cncn2)cc1	-12	-18	14	3209	3	8	10
O=C(Cn1cc2c(n1)CCCC2)N1CCCC1	-16	1	3.4	6029	-11	.	.
CCOc1ccc(N(C(C)C(=O)N/N=C(\C)c2cccc(NC(=O)c3ccccc3)c2)S(C)(=O)=O)cc1 (centres undefined)	-15	.	.	4623	3	.	.
O=C1COc2ccc(C(=O)COC(=O)Cc3ccc(F)cc3)cc2N1	-13	3	4.2	6829	5	4	4
Cc1ccc(OCC(=O)Nc2ccc3c(c2)OCO3)cc1C	-16	-11	-2.3	2511	1	-3	-4
COCC(C)NC(=S)NCCc1ccc(Cl)cc1Cl (centres undefined)	-1	-5	0.9	7001	10	-4	1
O=C(Nc1sc2c(c1C(=O)O)CCCC2)c1ccc(F)cc1	-43	14	41	4654	-1	0	9
CC(=O)Nc1ccc(C(=O)N/N=C/C2CC3C=CC2C3)cc1 (centres undefined)	-12	.	.	4110	3	.	.
O=C(N/N=C/c1ccccn1)c1ccc(NC(=O)c2ccccc2Cl)cc1	-14	.	.	4321	9	.	.
Cc1cc(=O)oc(C)c1C(=O)N1CCc2c([nH]c3ccccc23)C1C(C)C (centres undefined)	-11	1	3.5	4503	-5	9	5
CC(C)OC(=O)CSc1nnc2c(n1)[nH]c1ccc(F)cc12	-14	2	1.2	2565	-3	-2	3
O=C(O)c1cc(N/N=C/c2ccc(N3CCOCC3)cc2)ccc1Cl	-47	.	.	3314	-9	.	.
O=C(O)c1ccc(N=NN2CCCC2)cc1	-40	4	5.3	4029	3	5	-2
CC(NC(=O)c1ccc(Cl)s1)C1CCCO1 (centres undefined)	-30	0	1.6	24646*	6	.	.
CCOC(=O)C1CCCN(C(=O)c2ccc3nc(-c4ccc(OC)c(OC)c4)c(-c4ccc(OC)c(OC)c4)nc3c2)C1 (centres undefined)	1	-4	-0.8	6756	-10	-7	-1
CCN(CC(=O)Nc1ccc(OC)cc1)C(=O)CN1C(=O)NC(C)(c2ccc3ccccc3c2)C1=O (centres undefined)	-21	5	-1.1	5701	2	12	7
O=C(Nc1ncccn1)C1c2ccccc2Oc2ccccc21	-14	-1	4.1	2310	-1	6	16
O=C(COC(=O)CNC(=O)c1ccccc1F)NCC(F)(F)F	-53	-1	12	4186	-1	15	4
Cc1c(C(=O)NCCN2CCCC(O)C2)oc2c(F)cccc12 (centres undefined)	-14	3	-2.3	4219	-4	3	0
CCC1(CC)C(=O)Nc2ccccc21	0	5	-1.1	5713	0	.	.
Cc1occc1C(=O)Nc1cccc(S(=O)(=O)N2CCOCC2)c1	-33	1	1.9	3851	.	-1	6
CCN(CC)S(=O)(=O)c1ccc(NC(=O)c2ccc(CN3CCOCC3)cc2)cc1	-21	-1	-0.1	11139	-1	11	9
COc1ccc(C(C)=NNC(=O)c2ccncc2)cc1[N+](=O)[O-]	.	7	2.6	.	.	22	17
CCOC(=O)NNC(=O)c1ccc(Cl)cc1	-21	3	0.5	4960	-12	.	.
Cc1ccc(C)n1-c1cc(S(=O)(=O)N2CCOCC2)ccc1N1CCCC1	-14	-7	7.6	9182	-9	3	-3
COc1cc(CN(C)c2ccc(S(=O)(=O)N3CCCC3)cn2)ccc1OC(F)F	10	2	-0.6	6329	.	-9	-2
CCCSc1nc(N)nc2c1ncn2C1OC(CO)C(O)C1O (centres undefined)	4	-5	2.0	3390	.	10	5
c1ccc2sc(NC3=NCCN3)nc2c1	-52	1	5.5	2252	3	9	-3

Entries shown so far that have a nitro group on carbon (2):
SMILES	PrP UTR inh	Sa ugtP lethal	Sa RN4220 lethal	Autofluor counter	BJeLR lethal	Mtb hypoxia inh	Mtb hypoxia inh growth
CN(C(=O)COC(=O)CSc1ccc([N+](=O)[O-])cc1)c1ccccc1	2	11	9.2	2812	.	4	-1
COc1ccc(C(C)=NNC(=O)c2ccncc2)cc1[N+](=O)[O-]	.	7	2.6	.	.	22	17

Next section
SMILES	PrP UTR inh	Sa ugtP lethal	Sa RN4220 lethal	Autofluor counter	BJeLR lethal	Mtb hypoxia inh	Mtb hypoxia inh growth
COc1ccc(C(C)C)cc1S(=O)(=O)Nc1ccccn1	-50	-3	2.3	10095	-2	4	3
Cc1ccc(-n2c(C)cc(/C=C3/C(=O)NC(=O)N(Cc4ccco4)C3=O)c2C)cc1	-19	7	-1.6	2296	-4	9	4
O=C(NCc1ccc(F)cc1)C1CCC(CNS(=O)(=O)c2cccs2)CC1 (centres undefined)	-3	8	8.4	4304	-9	8	1
CC1CCC2(CC1)NC(=O)N(CC(=O)NC1(C#N)CCCCC1)C2=O (centres undefined)	-20	-3	2.0	?	0	4	2
CCN(C(=O)Cc1ccccc1OC)c1nnc(-c2ccncc2)s1	-17	4	3.8	8553	3	14	11
CC(C)Oc1ccc(/C=N/NC(=O)c2nnn(-c3nonc3N)c2CN(C)c2ccccc2)cc1	-5	.	.	5825	2	.	.
Cc1cc(C)n2nc(C(=O)NN=Cc3ccco3)nc2n1	.	3	2.6	.	.	0	9
COCC(C)NC(=O)c1ccc2nc(-c3ccccc3)c(-c3ccccc3)nc2c1 (centres undefined)	-12	14	4.9	3159	9	6	2
CCOC1(C)OCC(=O)[C@]2(CCC3C4CCC5=CC(=O)C=CC5(C)C4C(=O)CC32C)O1 (some centres undefined)	1	5	6.4	2423	-14	1	-1
N#Cc1ccc(C(=O)Nc2cccc3ccccc23)c(F)c1	-13	4	4.9	4642	-4	11	7
CCC(C)N1C(=O)N(c2cccc(Cl)c2)C(C)(O)CC1(C)C (centres undefined)	-20	1	4.4	3494	0	14	7
O=C(NC(NC(=O)c1c(F)cccc1F)c1ccc([N+](=O)[O-])cc1)c1c(F)cccc1F	-15	0	5.1	3564	-6	1	5

Part of the list above, limited to PrP UTR inh and Sa RN4220 lethal.
| Compound | PrP UTR inh | Sa RN4220 lethal |
| --- | --- | --- |
| CCN(CC)S(=O)(=O)c1ccc(NC(=O)c2ccc(CN3CCOCC3)cc2)cc1 | -21 | -0.1 |
| O=C(NCc1ccc(F)cc1)C1CCC(CNS(=O)(=O)c2cccs2)CC1 (centres undefined) | -3 | 8.4 |
| CCc1nc(CNC(=O)C2CCC(=O)N(CCc3cccc(F)c3)C2)no1 (centres undefined) | 9 | 7.5 |
| N#Cc1ccc(C(=O)Nc2cccc3ccccc23)c(F)c1 | -13 | 4.9 |
| CC(NC(=O)c1ccc(Cl)s1)C1CCCO1 (centres undefined) | -30 | 1.6 |
| COc1ccccc1C(=O)NCCC(=O)Nc1ccc(S(=O)(=O)Nc2ncccn2)cc1 | . | 4.3 |

Next part:
SMILES	PrP UTR inh	Sa ugtP lethal	Sa RN4220 lethal	Autofluor counter	BJeLR lethal	Mtb hypoxia inh	Mtb hypoxia inh growth
Cc1ccc(Nc2c(-c3ccco3)nc3ccccn23)cc1	-29	-4	4.8	11230	2	1	2
Cc1cc(SCC(=O)Nc2cccc(S(=O)(=O)NC3=NCCCCC3)c2)nc2ccccc12	-10	-11	3.6	3828	12	8	15
O=C(NC(=S)N1CCCC1)c1ccc(Cl)cc1	-91	5	-1.5	6011	-1	3	5
COC(=O)c1cccnc1NC(=S)NNC(=O)c1ccncc1	-24	-6	2.0	9390	4	0	10
CCN(CCO)C(=O)c1ccc2nc(Cc3cccc(Cl)c3)oc2c1	-19	4	4.7	3153	-15	1	6
CC(C)CC(C(=O)OCC(=O)N1CCN(c2ccccc2)CC1)N1C(=O)c2ccccc2C1=O (centres undefined)	-26	6	4.0	3555	.	7	5
S=C(Nc1ccccc1Cl)N(CCCN1CCOCC1)Cc1ccco1	-10	.	.	2103	-1	.	.
CC(=O)N/N=C(\C)c1ccc2c(c1)OCCO2	-9	.	.	4335	3	.	.
O=C(COc1ccccc1)N1CCN(CCN2C(=O)c3cccc4cccc(c34)C2=O)CC1	-17	2	0.6	2651	7	8	3
CCOC(=O)C1=C(C)N(C)C(=O)NC1c1cccc([N+](=O)[O-])c1 (centres undefined)	-6	1	3.7	3474	5	6	4
Cc1cc(C)n(Cc2ccc(C(=O)NCCC3=CCCCC3)o2)n1	-6	-8	-1.6	2353	-4	.	.
COc1ccccc1-c1nc(-c2ccc(Br)cc2)no1	-159	3	-12	10052	7	20	6
